Bioassay records deposited in PubChem BioAssay by National Center for Advancing Translational Sciences (NCATS).
HPGD block: inhibitors of human 15-hydroxyprostaglandin dehydrogenase (HPGD). P15428. purified HPGD, NADH fluorescence kinetic, PGE2 substrate. Potency, µM, without a hit: at the highest dose activity change, negative = inhibition, hits mostly inhibitors. hit rate 4.3% among 150,000. AID 894; active = well fitted inhibition curve with a large enough effect (not every such curve was filed as active); inconclusive = small, poorly fitted or top-dose-only effect, or another doubt; inactive = no such curve, though single readings can be large or run the other way;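 further: top concentration of the series not given in the record; plate controls included wells without enzyme; inactives centre near -10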
Target sequence (P15428 whole entry, looked up): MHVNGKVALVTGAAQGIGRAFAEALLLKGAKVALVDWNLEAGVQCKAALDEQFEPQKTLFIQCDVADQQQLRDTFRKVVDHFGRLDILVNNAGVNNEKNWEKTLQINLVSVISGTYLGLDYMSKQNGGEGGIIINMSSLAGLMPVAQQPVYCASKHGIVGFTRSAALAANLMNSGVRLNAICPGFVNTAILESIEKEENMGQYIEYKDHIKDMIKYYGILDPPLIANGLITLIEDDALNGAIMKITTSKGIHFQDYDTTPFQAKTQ
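NADH formation kinetics: reaction with 30 uM PGE2 and 1 mM NAD+ (final), 20 nM enzyme, Tris-HCl pH 8 with Tween 20, after 15 min compound preincubation at room temperature. Fluorescence change, last versus first of five reads.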
Numbers without * were called inactive; u = inconclusive. On the % scale 0 is the no-effect control and ±100 the full control effect; potency means the concentration at half of the fitted maximal effect. These rows are one share of the data (hit frequency here may not be typical).

SMILES	HPGD block
CC(C)=CC1C(CO)C1(C)C (stereo not given)	-4%
CC(=O)Nc1ccc(OC(=O)c2cccnc2)cc1	-12%
O=C(c1ccc(Cn2c(=O)[nH]c3ccccc3c2=O)cc1)N1CCN(c2ccc(Cl)cc2)CC1	u
Cc1ccc2cc3cc(C(=O)N4CCN(C(=O)c5ccco5)CC4)sc3nc2c1	-16%
CC(=O)Nc1ccc(N2CCN(Cc3ccccc3F)CC2)cc1	8%
O=C(c1cccc(F)c1)N1CCC2(CCCN(Cc3ccncc3)C2)CC1	0%
O=C(O)[C@@H]1[C@@H]2C[C@@H]3[C@@H](OC(=O)[C@@H]31)[C@H]2Br	3%
COCCn1c(SCC(=O)Nc2ccc(Cl)c(S(=O)(=O)N(C)C)c2)nc2ccccc21	-17%
Cc1cc(C)nc(SCC(=O)N/N=C/c2cccc([N+](=O)[O-])c2)n1	u
Oc1ccc2[nH]ccc2c1	-10%
CCOC(=O)CCn1nc(-c2ccc(Cl)cc2)cc1N	-1%
CC(CN(C(N)=O)c1ccccc1O)C(=O)O (stereo not given)	-3%
CCCCc1nnc(NC(=O)C=C(C)C)s1	-11%
O=C(N/N=C/c1ccccc1)c1sccc1OCc1ccc(F)cc1	-11%
O=c1c2cnn(-c3ccc(F)cc3)c2ncn1Cc1ccccc1	-22%
CCCNC1CCS(=O)(=O)C1 (stereo not given)	7%
O=C(CC1COc2ccccc2O1)Nc1ccccn1 (stereo not given)	-6%
CCn1c(SCc2c(Cl)cccc2Cl)nnc1-c1nn(-c2ccccc2)ccc1=O	4%
O=C(O)[C@@H]1CCCN1Cc1cc2ccccc2c2ccccc12	-9%
O=C(C1CCCCC1)N1CCN(C(=O)C2CCCCC2)CC1	-6%
CC(/C=N/NC(=O)c1cc(-c2cccs2)[nH]n1)=C\c1ccccc1	-11%
CC(C)(C)C(=O)Cn1ncc(N2CCCC2)c(Br)c1=O	-6%
Cc1ccc(N/N=C2\COC(C)(C)CC2=O)cc1	-19%
CCOC(=O)CNC(=O)CSc1nc(NCc2ccccc2)nc(N(C)C)n1	-8%
CCCOc1ccc(N)cc1N	-14%
Going on with the list:
SMILES	HPGD block
CCOC(=O)C1=C(O)C(=O)N(Cc2ccccc2)C1	-24%
Cc1ccccc1CNC(=O)c1ccccc1	16µM*
Cc1nnc(NC(=O)Cc2ccc(OCc3c(C)noc3C)cc2)s1	-12%
CC(C)NC(=S)Nc1cccc2cnccc12	-7%
CN1/C(=C\C(=O)Nc2ccc(Cl)cc2)C(C)(C)c2ccccc21	-5%
CC1Cn2c(COc3ccccc3)nnc2S1 (stereo not given)	-10%
CC(=O)NC(CC(C)C)C(=O)NC(Cc1ccccc1)C(N)=O (stereo not given)	-28%
C[C@H](CCC(=O)O)[C@H]1CC[C@@H]2[C@H]3CC[C@H]4C[C@@H](O)CC[C@@]4(C)[C@H]3CC[C@]21C	6%
CCC(=O)c1cn(CC(=O)OC)c2ccccc12	-2%
O=C(CN1C(=O)C2CCCN2c2ncc(Cl)cc21)NCc1ccc2c(c1)OCO2 (stereo not given)	-9%
Cc1cc(C)n(-c2ccc(C(=O)Nc3ccc(S(=O)(=O)NCc4ccco4)cc3)cc2)n1	-11%
Cc1cccc(OCCCC(=O)Nc2ccc3c(c2)OCO3)c1	-1%
O=C(/C=C/c1ccccc1Cl)Nc1cccc(S(=O)(=O)NC2=NCCCCC2)c1	-7%
COC(=O)c1[nH]c2ccccc2c1NC(=O)CN1CC(C)OC(C)C1 (stereo not given)	-16%
CC(=O)NC(CCS(C)(=O)=O)C(=O)Nc1cccc(C(C)=O)c1 (stereo not given)	-2%
CCc1nnc(NC(=O)c2nc3nc(C)cc(C)n3n2)s1	-22%
Cc1cccc(CN2CCN(CC(=O)NCc3cccs3)C2=O)c1	-13%
CCOc1cc(-c2cc(-c3ccc(N)cc3)nc(N)c2C#N)ccc1O	u
Oc1c(CN2CCOCC2)cc(COCc2ccccc2)c2cccnc12	0%
Cc1onc(-c2ccccc2Cl)c1C(=O)NCC1CCCO1 (stereo not given)	-11%
O=C(NNc1cc(N2CCOCC2)nc(N2CCOCC2)n1)c1ccc(Cl)c(Cl)c1	-11%
CC(C)Oc1ccccc1C1CC(=O)Nc2cc3c(cc21)OCCO3 (stereo not given)	-11%
C=CCNC(=O)CSc1nnc(-c2ccccc2Cl)n1-c1c(C)n(C)n(-c2ccccc2)c1=O	1%
c1ccc(-c2csc(Nc3ccc4c(c3)OCCO4)n2)cc1	-21%
CCOc1nc(NCCO)nc(Nc2ccc([N+](=O)[O-])cc2)n1	-9%
(further entries)
SMILES	HPGD block
COc1ccc(C)cc1NC(=O)c1cc2c(CO)cnc(C)c2oc1=N	-2%
CCOc1ccc(N(CC(=O)NCc2ccco2)S(C)(=O)=O)cc1	-12%
CCn1c(COc2ccc(C)cc2)nnc1SCC(=O)Nc1ccc(S(N)(=O)=O)cc1	-7%
CCCCn1c(SCC(=O)N2CCCC2)nc2c1c(=O)n(C)c(=O)n2C	-12%
COC(=O)c1ccc(-c2ccc(Cl)cc2)nc1C	-10%
CCCCC(CC)C(=O)Nc1ccc(C#N)cc1 (stereo not given)	-12%
CCOC(=O)c1c(C)oc2c1c(C=NCc1ccccn1)c(O)c1ccccc12	-20%
CCc1ccc2c(O)c3c(cc2c1C(=O)OC)C(=O)c1c(O)ccc(O)c1C3=O	u
CCCC(=O)Nc1cc(C)c(NC(=O)Cc2ccccc2)cn1	-9%
O=C(O)CCc1ccc(-c2ccc(Br)cc2)n1Cc1ccco1	-25%
Cc1ncc2c(c1O)COP(=O)(O)OC2	-1%
Clc1ccc(OCc2nnc(-c3ccccc3Br)o2)cc1	-28%
N/C(=N\OC(=O)N1CCOCC1)c1ccc(Cl)cc1	-13%
O=C(/C=C/c1cccc([N+](=O)[O-])c1)NCC1CCCO1 (stereo not given)	6.3µM*
Cc1ccc2cccc(Oc3nnnn3-c3ccccc3)c2n1	-9%
O=C(Nc1nccc(-c2cccs2)n1)c1cccs1	-8%
O=C(CCN1C(=O)COc2ccccc21)NCCCN1CCN(c2ccccc2F)CC1	-5%
Cc1c(C(=O)Nc2ccccc2)oc2c1C(=O)CC(C)(C)C2	-22%
Cc1ncc([N+](=O)[O-])n1CC(=O)NC1CCCCC1	-7%
Cc1ccc(S(=O)(=O)N(C(=O)c2ccncc2)c2ccc3oc4c(c3c2)CCCC4)cc1[N+](=O)[O-]	-19%
COc1ccc(-c2nc3cnc(OC)nc3n(Cc3cccs3)c2=O)cc1	u
C/C(=C(\C#N)C(=O)NCCN1CCOCC1)N(C)C	-3%
O=C(Nc1cccc(F)c1)N1CCC2(CC1)CCN(C(=O)c1cc(C(F)(F)F)cc(C(F)(F)F)c1)CC2	-10%
COc1cc(NC(=O)c2cccs2)c(OC)cc1NC(=O)c1ccco1	u
COC(=O)c1ccccc1NC(=O)c1cn(-c2ccc(C)c(C)c2)c(=O)c2ccccc12	u
More records follow:
SMILES	HPGD block
O=C(Nc1ccccc1)Nc1nnc(-c2cccs2)s1	-15%
CCOC(=O)N1CCN(C(=O)c2ccc(C#CC3(O)CCCCC3)cc2)CC1	-13%
Cc1cccc(C(C)C)c1NC(=O)CN(C)Cc1cccc(F)c1	-13%
CC(=O)Nc1ccccc1C(=O)C(=O)Nc1cccc(C(=O)NC2CC2)c1	-4%
O=C(COC(=O)c1ccc(CNS(=O)(=O)c2ccc(F)c(Cl)c2)cc1)NC1CCCCCCC1	-3%
CCCCSc1nc(O)c(Cc2ccccc2)c(=O)[nH]1	u
Cc1cc(NC(=O)CSc2ccc3nnc(-c4cccnc4)n3n2)no1	u
CCOC(=O)c1[nH]c(C(=O)O)c(CCC(=O)OC)c1C	-10%
CCCc1nnc(NC(=O)c2cccs2)s1	-4%
COc1ccc(C(C)=O)cc1COC(=O)CNC(=O)c1ccccc1F	u
CCn1c(SCC(=O)c2ccc(Cl)cc2)nnc1-c1cccs1	-23%
CCCCS(=O)(=O)N1C2=NC(C(=O)OC)=C(C(=O)OC)[C@@H]3Nc4ccccc4[C@]23C[C@H]1C(=O)OC	-8%
O=P(OC1CCS(=O)(=O)C1)(c1ccccc1)c1ccccc1 (stereo not given)	-9%
Cc1ccc(C2=Nc3ccccc3N(C(=O)c3ccccc3)C(C)C2)cc1 (stereo not given)	-11%
O=C(Nc1ncc(Br)s1)C(Cc1ccccc1)n1cccc1 (stereo not given)	-17%
Cc1cc(O)cc(O[C@H]2OC(CO)[C@H](O)[C@@H](O)[C@H]2O)c1 (stereo not given in full)	2%
C[C@H](C(=O)O)c1cccc(C(=O)c2ccccc2)c1	-17%
CC(=O)OCC(=O)[C@]12OC(C)(C)O[C@@H]1C[C@H]1[C@H]3CC=C4C[C@@H](O)CC[C@]4(C)[C@H]3CC[C@]12C	-2%
COc1cc(NC(=S)NC(=O)c2ccccc2F)ccc1NC(=O)c1ccco1	-26%
CC#C[C@]1(O)CC[C@H]2C3CCC4=CC(=O)CCC4=C3[C@@H](c3ccc(N(C)C)cc3)C[C@@]21C (stereo not given in full)	-8%
Cn1c(=O)c(CCc2ccccc2)nc2cnc(N3CCNCC3)nc21	u
Cc1ccc(SCC(=O)NC(=O)Nc2ccc3c(c2)OCCO3)c(C)c1	-1%
CCOC(=O)Cn1c(=N)n(CCOc2ccc3ccccc3c2)c2ccccc21	-9%
Cn1sc(NC(=O)c2cccc(Cl)c2)nc1=O	-8%
CCCc1nc2ccccc2c(=O)n1NC(=O)c1c(O)c2ccccc2[nH]c1=O	-18%
(next part)
SMILES	HPGD block
COc1ccc(C(CCNCc2ccc(F)cc2)c2ccc(F)cc2)cc1 (stereo not given)	-13%
COc1ccc(C2SCCN2C(=S)Nc2cccc(Cl)c2)cc1 (stereo not given)	-12%
O=C(COc1cc(Cl)c(Cl)cc1Cl)NCCN1CCOCC1	-10%
COc1ccc(OC)c(NC(=O)CN(C)S(=O)(=O)c2ccc3nc(C)sc3c2)c1	-3%
Cc1cccc(C)c1Nc1nnc(SC(C)C(=O)Nc2c(C)n(C)n(-c3ccccc3)c2=O)s1 (stereo not given)	-9%
CCOC(=O)C1CCCCN1Cc1ccccc1C(F)(F)F (stereo not given)	-13%
NC(=O)c1ccccc1[N+](=O)[O-]	-4%
COC(=O)c1[nH]c(=O)c2ccccc2c1OCc1ccccc1	-14%
O=C(N/N=C/c1ccc[nH]1)c1cccc([N+](=O)[O-])c1	-16%
CCC(C)(C)n1nnnc1C(c1ccccn1)N1CCCCC1 (stereo not given)	-10%
Cc1ccc(C(=O)n2c(-c3ccccc3)cnc2SCC(=O)Nc2ccc(C)cc2C)cc1	-23%
Oc1ccc(COCc2ccccc2)c2cccnc12	-27%
CCOC(=O)CC1C(=O)NCCN1S(=O)(=O)c1ccc(Cl)c(Cl)c1 (stereo not given)	-4%
Cc1ccc(OCC(=O)NC2=NCCS2)cc1	-14%
CCOC(=O)CSc1nc2cc(S(=O)(=O)Nc3ccccc3OC)ccc2o1	-6%
Cc1ccc(NC(=O)COC(=O)/C=C/c2c(C)nn(-c3ccc(F)cc3)c2Cl)cc1F	-12%
CC1(C)CC(C(=O)Nc2nccs2)CCO1 (stereo not given)	3%
CCN1C(=O)/C(=C2/C=CC=CN2C)SC1=S	-23%
C/C(=N\NC(=O)c1nn(C)c(C)c1Br)c1ccc(NC(=O)c2ccoc2C)cc1	u
CCOCCCNC(=O)C1CCN(S(=O)(=O)N2CC(C)CC(C)C2)CC1 (stereo not given)	-8%
CC(C)CCNC(=O)c1ccc(CSCc2cccc(F)c2)o1	14µM*
Cc1ccc(S(=O)(=O)N2CCN(S(=O)(=O)N(C)C)CC2)c(C)c1	-3%
Nn1c(Cc2cccc3ccccc23)nnc1SCc1ccccc1	13µM*
O=C(CSc1n[nH]c(-c2cccs2)n1)N1CCN(S(=O)(=O)c2ccccc2)CC1	u
COC(=O)c1nnc(-c2ccccc2)c(-c2ccccc2)n1	-20%
O=C1CC(c2ccccc2O)Oc2ccc(O)cc21 (stereo not given)	-26%
CC(C)CCNC(=O)CN(CCCN1CCOCC1)C(=O)Cn1nnc(-c2ccc(F)cc2)n1	-5%

By substructure, the entries above containing fluorine.
SMILES	HPGD block
CC(=O)Nc1ccc(N2CCN(Cc3ccccc3F)CC2)cc1	8%
O=C(c1cccc(F)c1)N1CCC2(CCCN(Cc3ccncc3)C2)CC1	0%
O=C(N/N=C/c1ccccc1)c1sccc1OCc1ccc(F)cc1	-11%
O=c1c2cnn(-c3ccc(F)cc3)c2ncn1Cc1ccccc1	-22%
O=C(CCN1C(=O)COc2ccccc21)NCCCN1CCN(c2ccccc2F)CC1	-5%
O=C(Nc1cccc(F)c1)N1CCC2(CC1)CCN(C(=O)c1cc(C(F)(F)F)cc(C(F)(F)F)c1)CC2	-10%
Cc1cccc(C(C)C)c1NC(=O)CN(C)Cc1cccc(F)c1	-13%
O=C(COC(=O)c1ccc(CNS(=O)(=O)c2ccc(F)c(Cl)c2)cc1)NC1CCCCCCC1	-3%
COc1ccc(C(C)=O)cc1COC(=O)CNC(=O)c1ccccc1F	u
COc1cc(NC(=S)NC(=O)c2ccccc2F)ccc1NC(=O)c1ccco1	-26%
COc1ccc(C(CCNCc2ccc(F)cc2)c2ccc(F)cc2)cc1 (stereo not given)	-13%
CCOC(=O)C1CCCCN1Cc1ccccc1C(F)(F)F (stereo not given)	-13%
Cc1ccc(NC(=O)COC(=O)/C=C/c2c(C)nn(-c3ccc(F)cc3)c2Cl)cc1F	-12%
CC(C)CCNC(=O)c1ccc(CSCc2cccc(F)c2)o1	14µM*
CC(C)CCNC(=O)CN(CCCN1CCOCC1)C(=O)Cn1nnc(-c2ccc(F)cc2)n1	-5%
